Source: PubChem BioAssay
GIRK2 activ = opens human GIRK2 potassium channels; AID 1259325; HEK293-GIRK2 thallium flux, Thallos fluorescence; calls only for hits at 25 µM; P48051; hit rate 0.05% among 63,000;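 active = among the strongest 0.2% of first-round signals and kept after retests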;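 note: first round at about 10 µM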
Target sequence (P48051 whole entry, looked up): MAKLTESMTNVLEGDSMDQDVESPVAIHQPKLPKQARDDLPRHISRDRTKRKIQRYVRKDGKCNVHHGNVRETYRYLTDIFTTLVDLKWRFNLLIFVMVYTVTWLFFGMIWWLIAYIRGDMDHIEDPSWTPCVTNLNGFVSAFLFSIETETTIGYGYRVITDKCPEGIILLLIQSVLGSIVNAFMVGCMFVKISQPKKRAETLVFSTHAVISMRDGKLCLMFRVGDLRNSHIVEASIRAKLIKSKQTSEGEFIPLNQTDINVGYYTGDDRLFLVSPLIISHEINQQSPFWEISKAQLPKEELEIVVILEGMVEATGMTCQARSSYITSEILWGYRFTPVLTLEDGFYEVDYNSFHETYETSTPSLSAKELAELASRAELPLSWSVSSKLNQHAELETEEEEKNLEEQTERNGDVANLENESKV
Calls only. A portion of the library; the hit share may differ from the screen's.

What do the screens show for `COc1ccc(-c2nnc3n(CCCc4ccccc4)c4c(=O)n(C)c(=O)n(C)c4n23)cc1`?
GIRK2 activ: inactive

What do the screens show for `Cc1ccc(CNC(=O)CN2C(=O)NC(c3ccc(C)cc3)C3=C2COC3=O)cc1` (stereo not given)?
GIRK2 activ: inactive

How did O=C(CSc1nc2ccsc2c(=O)n1Cc1ccccc1F)Nc1nccs1 do in these assays?
GIRK2 activ: inactive

Results for COc1ccc(NC(=O)Cn2ccn(-c3ccc(C)c(C)c3)c(=O)c2=O)cc1OC ?
GIRK2 activ: inactive

How did CCCCn1c(C(=O)N2CCC(C(N)=O)CC2)cc2c(=O)n(C)c(=O)n(C)c21 do in these assays?
GIRK2 activ: inactive

How did O=C(Nc1ccc(-c2nc3ccccc3o2)cc1)Nc1c(F)cccc1F do in these assays?
GIRK2 activ: inactive

Results for CCCC(=O)Nc1ccc(S(=O)(=O)NCCn2nc(-n3ccnc3)ccc2=O)cc1 ?
GIRK2 activ: inactive

What do the screens show for `CCOc1ccccc1/C=N\NC(=O)CNC(=O)c1ccc(S(=O)(=O)N2CCOCC2)cc1`?
GIRK2 activ: inactive

What do the screens show for `O=C(NCC#CCOc1cccc(C(F)(F)F)c1)Nc1cccs1`?
GIRK2 activ: inactive

What do the screens show for `CNc1nn(CC(=O)Nc2ccc3c(c2)OCCO3)c(N)c1-c1nc(-c2ccc(C)cc2)no1`?
GIRK2 activ: inactive

Results for CC(=O)Nc1ccc(SCCCC(=O)Nc2nc3ccccc3s2)nn1 ?
GIRK2 activ: inactive

Results for O=C(CCc1ccccc1)Nc1nnc(-c2ccsc2)o1 ?
GIRK2 activ: inactive

What do the screens show for `C=C1[C@H](OC(C)=O)[C@H]2[C@@H](OC(C)=O)[C@](C)(OC(C)=O)C[C@]2(OC(C)=O)C(=O)[C@H](C)C=CC(C)(C)C(=O)[C@H](OC(=O)C(C)CC)[C@H]1OC(C)=O` (stereo not given in full)?
GIRK2 activ: inactive

Results for COc1ccc(C2CCN(C(=O)c3ccc(OC(F)(F)F)cc3)C2)cc1 (stereo not given) ?
GIRK2 activ: inactive

What do the screens show for `Cc1ccc(NC(=O)CSc2ncc(S(=O)(=O)c3ccc(C)cc3)c(N)n2)cc1`?
GIRK2 activ: inactive

Results for CCOC(=O)N1CCN(CC(O)COc2ccc(OC)cc2)CC1 (stereo not given) ?
GIRK2 activ: inactive

How did COc1cc(CNC(=O)Cc2ccc(S(=O)(=O)C(C)C)cc2)cc(OC)c1OC do in these assays?
GIRK2 activ: inactive

How did CCN(CC)c1nc2ccsc2c(=O)n1CCC(=O)NCc1cccs1 do in these assays?
GIRK2 activ: inactive

What do the screens show for `COC(=O)c1ccc(S(=O)(=O)NCC2(O)CCOCC2)cc1`?
GIRK2 activ: inactive

What do the screens show for `O=C(NCCc1ccccc1)c1nn(-c2ccccc2)c2ccccc2c1=O`?
GIRK2 activ: inactive

How did COc1ccc(NC(=O)CCn2nc(C)nc2C)cc1 do in these assays?
GIRK2 activ: inactive

What do the screens show for `c1cn(CCCNc2ncnc3[nH]ncc23)cn1`?
GIRK2 activ: inactive

How did Cc1c(-c2noc(-c3cccc(N(C)C)c3)n2)nnn1-c1ccc(F)cc1 do in these assays?
GIRK2 activ: inactive

How did N#C/C(C(=O)NC1CCCC1)=C1/N=C(NC(=O)c2ccc(F)cc2)c2ccccc21 do in these assays?
GIRK2 activ: inactive

Results for CCOc1ccccc1-n1nnc2c(=O)n(Cc3nc(-c4cccc(C)c4)no3)cnc21 ?
GIRK2 activ: inactive

Results for Cc1oc2cc(OCc3c(F)c(F)c(F)c(F)c3F)ccc2c(=O)c1Oc1ccccc1 ?
GIRK2 activ: inactive

Results for Cc1csc(C(=O)N2CCN(CC(O)c3ccco3)CC2)c1 (stereo not given) ?
GIRK2 activ: inactive

What do the screens show for `O=C(NCC#CCN1CCOCC1)c1cc(-c2ccco2)on1`?
GIRK2 activ: inactive

How did CC1CCCN(c2nc(Nc3ccc(F)cc3)c3n[nH]nc3n2)C1 (stereo not given) do in these assays?
GIRK2 activ: inactive

Results for Cc1cc(C(=O)Nc2nc3c(s2)CN(C(=O)/C=C/c2ccco2)CC3)no1 ?
GIRK2 activ: inactive

Sorted by formula weight (lowest first): part of the list above.
What do the screens show for `c1cn(CCCNc2ncnc3[nH]ncc23)cn1`?
GIRK2 activ: inactive

What do the screens show for `COC(=O)c1ccc(S(=O)(=O)NCC2(O)CCOCC2)cc1`?
GIRK2 activ: inactive

Results for CCOC(=O)N1CCN(CC(O)COc2ccc(OC)cc2)CC1 (stereo not given) ?
GIRK2 activ: inactive

(list continues)
What do the screens show for `Cc1c(C)n2c3c(=O)n(C)c(=O)n(C)c3nc2n1CCN1CC(C)OC(C)C1` (stereo not given)?
GIRK2 activ: inactive

Results for Cc1c(C)n2c3c(=O)[nH]c(=O)n(C)c3nc2n1CCN1CCN(Cc2ccc(F)cc2)CC1 ?
GIRK2 activ: inactive

What do the screens show for `CC(C)(C)C(O)CCNC(=O)c1cc(C2CC2)on1` (stereo not given)?
GIRK2 activ: inactive

How did COc1ccc2nc(N(CCN3CCOCC3)C(=O)c3ccccc3S(C)(=O)=O)sc2c1 do in these assays?
GIRK2 activ: inactive

Results for O=S(=O)(N1CCCCCC1)N1CCN(c2ccccc2)CC1 ?
GIRK2 activ: inactive

What do the screens show for `CN1CCOc2ccc(NS(=O)(=O)c3ccc4c(c3)OCCO4)cc2C1=O`?
GIRK2 activ: inactive

What do the screens show for `CCOc1ccc(-c2nc(Cn3nnc(C(=O)Nc4ccc(Cl)cc4)c3N)c(C)o2)cc1`?
GIRK2 activ: inactive

Results for CSc1ccccc1NC(=O)c1coc(NC(=O)c2cnccn2)n1 ?
GIRK2 activ: inactive

Results for COc1ccc2cc(CNc3ccccc3)c(=O)n(CC(=O)Nc3cc(Cl)ccc3OC)c2c1 ?
GIRK2 activ: inactive

How did COc1ccc2c(c1)CCN(C(=O)c1cc(-c3ccco3)[nH]n1)C2 do in these assays?
GIRK2 activ: inactive

What do the screens show for `COc1ccc(OC(C)C(=O)Nc2cc(N3CCN(Cc4ccccc4)CC3)ncn2)cc1` (stereo not given)?
GIRK2 activ: inactive

Results for Cc1cc(C)nc(NC(=O)c2c[nH]c3ccccc3c2=O)n1 ?
GIRK2 activ: inactive

Results for Cc1cc(C)cc(NC(=O)Cn2cc(C(=O)N3CCC(C)CC3)c(=O)c3ccc(C)nc32)c1 ?
GIRK2 activ: inactive

Results for O=C(c1ccc(=O)[nH]c1)N1CCN(S(=O)(=O)C2CC2)CC1 ?
GIRK2 activ: inactive

How did COc1cccc(CSc2nc(CC(=O)NCc3cccnc3)cc(=O)[nH]2)c1 do in these assays?
GIRK2 activ: inactive

Gathered by group: those above with a CF3 group (2)
What do the screens show for `O=C(NCC#CCOc1cccc(C(F)(F)F)c1)Nc1cccs1`?
GIRK2 activ: inactive

Results for COc1ccc(C2CCN(C(=O)c3ccc(OC(F)(F)F)cc3)C2)cc1 (stereo not given) ?
GIRK2 activ: inactive

(cont.)
Results for CSc1ccccc1NC(=O)c1cc2n(n1)CCCO2 ?
GIRK2 activ: inactive

Results for CCCCCCOC(=O)C(C#N)c1nc2ccccc2nc1N1CCN(C)CC1 (stereo not given) ?
GIRK2 activ: inactive

How did C=C[C@@]12COC(=O)C(=C)C1[C@@H](O)[C@H](C(=C)C(=O)OC)[C@@H](OC(=O)C(=C)CO)C2 (stereo not given in full) do in these assays?
GIRK2 activ: inactive

How did O=C(c1cn(-c2cc(N3CCCCC3)ncn2)cn1)N1CCc2ccccc2C1 do in these assays?
GIRK2 activ: inactive

What do the screens show for `O=C(CSCc1ccccc1)NCC1CCN(c2ccccn2)CC1`?
GIRK2 activ: inactive

Results for O=C(COc1ccccc1F)N1CCOC(c2cc(Cl)cc(Cl)c2)C1 (stereo not given) ?
GIRK2 activ: inactive

Results for O=C(Nc1nc2ccc(F)cc2s1)c1cccc(S(=O)(=O)N2CCOCC2)c1 ?
GIRK2 activ: inactive

What do the screens show for `Cc1c(C(=O)c2ccc(Cl)cc2)oc2ccc(NC(=O)C3CC3)cc12`?
GIRK2 activ: inactive

Results for Cc1noc(-c2ccnc(-n3ncc(C(=O)N4CCC(Cc5ccccc5)CC4)c3C)c2)n1 ?
GIRK2 activ: inactive

Results for O=C(Nc1ccc2oc(=O)ccc2c1)c1ccccc1 ?
GIRK2 activ: inactive

Results for O=C(CSc1nnnn1-c1ccccc1)c1ccc(Cl)c(Cl)c1 ?
GIRK2 activ: inactive

How did Cc1noc(CNC(=O)c2csc(Nc3ncccn3)n2)n1 do in these assays?
GIRK2 activ: inactive

Results for CN(C)S(=O)(=O)N1C2CCC1CC(S(=O)(=O)c1ccccc1)C2 (stereo not given) ?
GIRK2 activ: inactive

How did Cc1[nH]c(=O)n(C)c(=O)c1CCC(=O)Nc1ccc2c(c1)NC(=O)C(C)O2 (stereo not given) do in these assays?
GIRK2 activ: inactive

Results for OC(CCN1CCCC1)(c1ccccc1)C1CCCCC1 (stereo not given) ?
GIRK2 activ: inactive

Compounds above with an aryl thioether with sulfur outside any ring (7):
How did O=C(CSc1nc2ccsc2c(=O)n1Cc1ccccc1F)Nc1nccs1 do in these assays?
GIRK2 activ: inactive

Results for CC(=O)Nc1ccc(SCCCC(=O)Nc2nc3ccccc3s2)nn1 ?
GIRK2 activ: inactive

What do the screens show for `Cc1ccc(NC(=O)CSc2ncc(S(=O)(=O)c3ccc(C)cc3)c(N)n2)cc1`?
GIRK2 activ: inactive

Results for CSc1ccccc1NC(=O)c1coc(NC(=O)c2cnccn2)n1 ?
GIRK2 activ: inactive

How did COc1cccc(CSc2nc(CC(=O)NCc3cccnc3)cc(=O)[nH]2)c1 do in these assays?
GIRK2 activ: inactive

Results for CSc1ccccc1NC(=O)c1cc2n(n1)CCCO2 ?
GIRK2 activ: inactive

Results for O=C(CSc1nnnn1-c1ccccc1)c1ccc(Cl)c(Cl)c1 ?
GIRK2 activ: inactive

Continued.
How did Cc1cccc(C)c1NC(=O)CSc1ccc(-n2cnc(-c3ccccc3)c2)nn1 do in these assays?
GIRK2 activ: inactive

How did O=c1c(S(=O)(=O)N2CCCC2)cccn1Cc1noc(C2CCCC2)n1 do in these assays?
GIRK2 activ: inactive

How did C=C(C)Cn1c(=O)c2c(nc3n2CC(C)=NN3C(C)C)n(C)c1=O do in these assays?
GIRK2 activ: inactive

How did COc1cc2ncn(-c3cc(OCc4ccccc4C(F)(F)F)c(C(=O)N(C)C)s3)c2cc1OC do in these assays?
GIRK2 activ: inactive

How did COC(=O)C1=CN(C2CC2)c2cc(N3CCCCCC3)c(F)cc2S1(=O)=O do in these assays?
GIRK2 activ: inactive

What do the screens show for `COc1cccc(Oc2c(C)oc3cc(OC)ccc3c2=O)c1`?
GIRK2 activ: inactive

Results for Cc1cc(NC(=O)c2ccc(Br)o2)n(-c2nc(-c3ccccc3)cs2)n1 ?
GIRK2 activ: inactive

How did COc1ccc(S(=O)(=O)NCC(c2cccnc2)N2CCN(c3ccc(F)cc3)CC2)cc1C (stereo not given) do in these assays?
GIRK2 activ: inactive

Results for O=C(Cn1nc(-n2cccn2)ccc1=O)NC1CCCC1 ?
GIRK2 activ: inactive

Results for Cc1nc(SCC(=O)Nc2cccc(C(F)(F)F)c2)cc(-c2ccccn2)n1 ?
GIRK2 activ: inactive

What do the screens show for `COC(=O)c1ccc2c(=O)n(CCCC(=O)N3CCN(c4ccccc4F)CC3)c(=S)[nH]c2c1`?
GIRK2 activ: inactive

How did O=C(Nc1cccc(Cl)c1F)c1nnn(-c2ccccc2)c1-c1ccccn1 do in these assays?
GIRK2 activ: active

Results for O=C(CSc1cc(C(F)(F)F)c2cc3c(cc2n1)OCO3)N1CCOCC1 ?
GIRK2 activ: inactive

How did O=C(/C=C/c1ccccc1Cl)NCCn1nc(C2CC2)n(-c2ccccc2)c1=O do in these assays?
GIRK2 activ: inactive

What do the screens show for `O=C(Cn1cnc2c(-c3ccc(F)cc3)csc2c1=O)N1CCCCC1`?
GIRK2 activ: inactive

Results for COc1ccc(C)cc1N1CCn2c1nc1c2c(=O)n(Cc2cc(C)ccc2C)c(=O)n1C ?
GIRK2 activ: inactive

How did O=C1/C(=C/c2ccncc2)Oc2c1ccc1c2CN(CCCc2ccccc2)CO1 do in these assays?
GIRK2 activ: inactive

Results for O=C(NC1CCCC1)c1nnn(-c2ccc(NC(=O)c3cccc4ccccc34)cc2)n1 ?
GIRK2 activ: inactive

Results for O=C(/C=C/c1ccccc1)Nc1ccc(-n2nnc(C(=O)NCC(F)(F)F)n2)cc1 ?
GIRK2 activ: inactive

Results for COc1ccccc1OCC(=O)N1CC(Oc2nc3ccccc3s2)C1 ?
GIRK2 activ: inactive

How did O=C(Cn1nc2c3cc(-c4ccc(F)cc4)nn3ccn2c1=O)Nc1ccccc1 do in these assays?
GIRK2 activ: inactive

Results for COCC1=C2C(=C[C@@]3(C)CC[C@](O)(O3)[C@](C)(O)C[C@@H]2OC(C)=O)OC1=O ?
GIRK2 activ: inactive

How did Cc1ccccc1N1C(=O)N(c2cccc(C)c2C)C2CS(=O)(=O)CC21 (stereo not given) do in these assays?
GIRK2 activ: inactive

How did O=C(CN1C(=O)CCC1=O)N1CCC(Cn2ccnc2)CC1 do in these assays?
GIRK2 activ: inactive

How did O=C(NCc1cccs1)N1CCOC(c2cc(Cl)cc(Cl)c2)C1 (stereo not given) do in these assays?
GIRK2 activ: inactive

What do the screens show for `c1ccc(Nc2ncc(-c3ccccc3)o2)cc1`?
GIRK2 activ: inactive

How did CCOc1ccc(NC(=O)COC(=O)CCCC2=NS(=O)(=O)c3ccccc3N2)cc1 do in these assays?
GIRK2 activ: inactive

How did Cc1cccc(N2CCN(S(=O)(=O)CCCNC(=O)Cc3ccc(Cl)cc3)CC2)c1 do in these assays?
GIRK2 activ: inactive

What do the screens show for `O=C(Cn1nc(-c2ccc(F)cc2)c2sc(N3CCCC3)nc2c1=O)N1CCCc2ccccc21`?
GIRK2 activ: inactive

Results for CCOC(=O)CCC(=O)Nc1cccc2ccc(OC)nc12 ?
GIRK2 activ: inactive

Results for Cc1ccc(S(=O)(=O)N2CCN(c3ccc(C)cc3C)CC2)cc1 ?
GIRK2 activ: inactive

Results for Cc1ccc(N2CN(CC(=O)Nc3cc(F)ccc3F)S(=O)(=O)c3cccnc32)cc1 ?
GIRK2 activ: inactive

Results for O=C(c1cc(Cl)ccc1Cl)N1CCN(c2ccc3nnc(C4CC4)n3n2)CC1 ?
GIRK2 activ: inactive

Results for Cc1ccccc1C(=O)Nc1c2c(nn1CC(=O)NCc1ccccc1)CSC2 ?
GIRK2 activ: inactive
